Assay outcomes (PubChem)
KCNQ2 inh: KCNQ2 potassium channel inhibitors, primary screen, cell-based, CHO-K1, FluxOR thallium flux, B-score (AID 2156). Potassium voltage-gated channel subfamily KQT member 2 (Rattus norvegicus), O88943. 20 min; active compounds read low; only compounds with negative scores are shown here; some inactives read as strong as hits. B-score at 10 µM. actives 1.1% (n = 310,000);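 active = fluorescence ratio B-score at most minus 3 library SDs, with starting brightness B-score within 2 library SDs, cut at about -5.5 in these data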
Target sequence (O88943 whole entry, looked up): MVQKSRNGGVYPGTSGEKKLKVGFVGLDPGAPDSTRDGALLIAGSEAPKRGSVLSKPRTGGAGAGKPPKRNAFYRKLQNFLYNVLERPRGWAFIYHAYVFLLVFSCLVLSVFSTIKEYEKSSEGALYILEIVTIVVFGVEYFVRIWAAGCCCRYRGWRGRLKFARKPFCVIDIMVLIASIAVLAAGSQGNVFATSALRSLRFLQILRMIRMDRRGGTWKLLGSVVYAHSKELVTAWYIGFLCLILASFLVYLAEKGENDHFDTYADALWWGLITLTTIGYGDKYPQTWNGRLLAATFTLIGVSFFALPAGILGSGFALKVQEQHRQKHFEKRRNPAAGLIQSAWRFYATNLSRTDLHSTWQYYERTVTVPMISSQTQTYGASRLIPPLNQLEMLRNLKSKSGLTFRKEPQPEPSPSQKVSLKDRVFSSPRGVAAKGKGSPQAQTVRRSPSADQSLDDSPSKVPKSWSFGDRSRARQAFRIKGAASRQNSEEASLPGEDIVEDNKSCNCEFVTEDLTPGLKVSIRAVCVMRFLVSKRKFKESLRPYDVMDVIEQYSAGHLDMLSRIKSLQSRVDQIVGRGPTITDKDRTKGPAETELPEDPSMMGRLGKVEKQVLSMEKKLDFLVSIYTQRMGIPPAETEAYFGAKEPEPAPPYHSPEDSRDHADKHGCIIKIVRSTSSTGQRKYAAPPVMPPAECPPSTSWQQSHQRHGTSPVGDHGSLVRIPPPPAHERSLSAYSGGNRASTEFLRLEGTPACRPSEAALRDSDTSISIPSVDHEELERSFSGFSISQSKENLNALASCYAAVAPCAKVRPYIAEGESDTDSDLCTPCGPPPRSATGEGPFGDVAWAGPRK
KCNQ2 inh baseline: second read-out of KCNQ2 inh, no call of its own (marks repeat the call); B-score; measured here: initial fluorescence intensity artifact check;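 brightness before thallium and not channel activity; 0 = typical well and far values either way flag optical interference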
Active calls of the source: *; i = inactive. A portion of the library, so the mix of outcomes need not match the whole.

SMILES | KCNQ2 inh | KCNQ2 inh baseline
COC(=O)C(O)(c1ccc(NC(=O)c2ccco2)c(OC)c1)C(F)(F)F (stereo unspecified) | i | -0.05
CCOC(=O)CNC(=S)N1CC2C[C@@H](C1)Cn1c2cccc1=O | i | -0.01
NC1CCCCC1N=Cc1c(O)n(Cc2ccc(F)cc2)c(=O)[nH]c1=O (stereo unspecified) | i | -1.6
COc1cc(N2CCOCC2)ccc1C=C1C(=O)NC(=O)NC1=O | i | -1
CCc1ccc(NC2=NCCCS2)cc1 | i | -0.5
COc1ccc(C2C(C#N)=C(N)Oc3c2c(=O)oc2ccccc32)cc1Cn1cc([N+](=O)[O-])cn1 (stereo unspecified) | i | 1.9
NCCNc1ccc([N+](=O)[O-])c2cccnc12 | i | 0.09
CCOc1ccc(-n2c(O)c(/C=C3\C=Nc4ccccc43)c(=O)[nH]c2=O)cc1 | i | 14
CC1CCCCN1CC(=O)c1ccc2cc[nH]c2c1 (stereo unspecified) | i | -0.18
Cn1c(O)c(C=NC2CCCCCC2)c(=O)[nH]c1=S | i | -0.24
O=C(COc1ccc(S(=O)(=O)N2CCOCC2)cc1)N1CCN(Cc2ccc3c(c2)OCO3)CC1 | i | 0.75
CCC(CO)(C(=O)OC1CC2CCC(C1)N2C)c1ccccc1 (stereo unspecified) | i | -0.83
O=C(/C=C/c1c[nH]c2ccccc12)c1c(O)n(CCc2ccccc2)c(=O)[nH]c1=O | i | 12
OC(CCNCCc1c[nH]c2ccccc12)C(F)(F)F (stereo unspecified) | i | -0.07
CCCC(=O)C1C(=O)NC(=O)NC1=O | i | -0.42
Cc1ccc(OCC(=O)N2CCCC(N3CCN(c4ccc(F)cc4)CC3)C2)cc1 (stereo unspecified) | i | 1.2
COc1cccc(CNC2CN3CCC2CC3)c1OC (stereo unspecified) | i | 2.2
O=C(Nc1ccc(OC(=O)N2CCCCC2)cc1)N1CCOCC1 | i | 1.8
Cc1nn(-c2ccccc2)c2c1C(c1ccc3c(c1)OCO3)SCC(=O)N2 (stereo unspecified) | i | 0.07
CC(C)N1CCN(Cc2cccc([N+](=O)[O-])c2)CC1 | i | 0.75

An excerpt of these results, with values under each structure:
Values in the order: KCNQ2 inh	KCNQ2 inh baseline
NCCNc1ccc([N+](=O)[O-])c2cccnc12
→ i	0.09
CCOc1ccc(-n2c(O)c(/C=C3\C=Nc4ccccc43)c(=O)[nH]c2=O)cc1
→ i	14
CC1CCCCN1CC(=O)c1ccc2cc[nH]c2c1 (stereo unspecified)
→ i	-0.18
Cn1c(O)c(C=NC2CCCCCC2)c(=O)[nH]c1=S
→ i	-0.24

More results:
SMILES | KCNQ2 inh | KCNQ2 inh baseline
O=P1(Nc2ccc(F)cc2)COc2ccccc2OC1 | i | -1.8
Cc1ccc2nsnc2c1-n1c(C)nc2ccccc2c1=O | i | 0.43
O=C(c1ccc(Cl)cc1)C1CCCN(Cc2ccc3ncccc3c2)C1 (stereo unspecified) | i | -1.1
C=CCn1c(O)c(C(CC)=Nc2ccccc2NC(C)=O)c(=O)[nH]c1=O | i | 0.73
CN1C(=O)NC(=O)/C(=C\c2ccc([N+](=O)[O-])o2)C1=O | i | -0.5
CC(C)c1ccccc1OCC(=O)N1CCCN(C)CC1 | i | 0.34
COCc1ccc(CN2CCCC(C(=O)c3sccc3C)C2)o1 (stereo unspecified) | i | -0.01
C=C1C/C(=C/C)C(=O)O[C@@H]2CCN3CC=C(COC(=O)[C@]1(C)O)[C@H]23 | i | 0.01
CCNc1nc(NC(C)(C)C)nc(SC)n1 | i | 0.95
COC(=O)C(O)(c1ccc2c(c1)CCCN2)C(F)(F)F (stereo unspecified) | i | 0.77
Cc1ccccc1-n1c(O)c(/C=N/Nc2nc3c(c(=O)n(C)c(=O)n3C)n2C)c(=O)[nH]c1=S | i | -0.3
CC[n+]1c(/C=C/C=C/c2ccc(N(C)C)cc2)sc2ccccc21 | -7.9* | -7*
CC(C)C(C)(NC(=O)c1cccn(Cc2ccc3c(c2)OC(F)(F)O3)c1=O)C(N)=O (stereo unspecified) | i | 1.9
CNCC(O)c1cc(F)c(OCc2ccccc2)c(OCc2ccccc2)c1F (stereo unspecified) | i | 0.15
CC(C)NC(=O)Cn1cc(C(=O)c2ccccc2)c2ccccc21 | i | 0.39
Nc1c(C(=O)NCc2ccco2)c2nc3ccccc3nc2n1CCN1CCCCC1 | i | -0.8
CCCCN(Cc1ccccc1)C1CCN(CCc2ccccc2)CC1 | i | 0.23
COc1ccc(Br)cc1CN1CCN(C(=O)Cc2ccccc2)CC1 | i | 2
CN1CCc2c([nH]c3ccccc23)C1 | i | 0.15
C[C@]12CC[C@H](OS(=O)(=O)O)CC1=CC[C@@H]1[C@@H]2CC[C@]2(C)C(=O)CC[C@@H]12 | i | 1.6
CC(Cc1ccccc1)NCC(=O)Nc1cc(N(C)C)nc2ccccc12 (stereo unspecified) | i | 0.01
COC(=O)[C@@H](N)CCCN=C(N)N[N+](=O)[O-] | -6.4* | -1.3*
CN(C)CP(=O)(Nc1ccccc1)N(C)C (stereo unspecified) | i | 0.04
Cc1onc(-c2c(Cl)cccc2Cl)c1C(=O)Nc1ccc2c(C(F)(F)F)cc(=O)oc2c1 | i | -0.81
Cc1c(NP(=O)(C(C)(C)C)C(C)(C)C)c(=O)n(-c2ccccc2)n1C | i | 0.04
O=C1NC(=O)[C@]2(Cc3ccccc3N3CCN(c4ccccc4)CC32)C(=O)N1Cc1ccccc1 (stereo partly specified) | -5.7* | 1.1*
CCOC(=O)c1[nH]c2ccc(OC)cc2c1C(SCC(=O)O)c1ccc(C(F)(F)F)cc1 (stereo unspecified) | i | 0.76
O=C(O)C1CSC(c2cccnc2)N1 (stereo unspecified) | i | 2.9
COc1ccc2nc(/N=C/c3c(O)n(-c4cccc(Cl)c4)c(=O)[nH]c3=O)sc2c1 | i | -1.1
O=C(CSC1c2ccccc2-c2ccccc21)N/N=C/c1ccccc1C(=O)O | i | 1.6
c1ccc2c(CN3CCN(C4CCCCC4)CC3)c[nH]c2c1 | i | 0.09
CN(CCc1ccccc1)Cc1c[nH]c2ccccc12 | i | 0.15
CN1C(=O)CC(c2ccccc2)Nc2ccccc21 (stereo unspecified) | i | -0.16
O=c1[nH]c(=O)n(Cc2ccccc2)c(O)c1C=NCCN1CCNCC1 | i | -0.05
CCOP(=O)(C#Cc1ccccc1)C(O)c1ccc(Br)cc1 (stereo unspecified) | i | 2
CCOP(=O)(OCC)C(NC(=O)c1ccccc1C)C(Cl)(Cl)Cl (stereo unspecified) | i | -1.6
Cc1nccc2c1[nH]c1ccccc12 | i | -2.8
CN(C)CCSC1c2ccccc2CSc2ccccc21 (stereo unspecified) | i | 0.2
COc1ccc(S(=O)(=O)N2CC3CC(C2)c2cccc(=O)n2C3)cc1 (stereo unspecified) | i | -1.8
O=C(O)c1cn(Cc2ccccc2)nc1-c1ccccc1 | i | -0.02
CC1=C2C(=O)C3C(CC=C4CC(OC5OC(O)C(O)C(O)C5CO)CCC43C)C2CCC12OC1CC(C)CNC1C2C (stereo unspecified) | i | -0.14
O=S(=O)(c1ccc(F)cc1)N1CCCCC1c1cccnc1 (stereo unspecified) | i | 0.92
COC(=O)C1=C(c2ccccc2)C[C@@H]2CC[C@H]1N2C(=O)N1CCC(C)CC1 | i | -0.35
Cc1ccc(N2C(=O)NC(=O)/C(=C\c3ccc([N+](=O)[O-])o3)C2=O)cc1 | i | 1.1
COc1cc(C=C2C(=O)NC(=O)NC2=O)ccc1O | i | 0.45
COc1ccc(CCC(=O)N2C[C@H]3C[C@@H](C2)c2cccc(=O)n2C3)cc1 | i | 1.1
CN(CCc1ccccc1)Cc1ccccc1[N+](=O)[O-] | i | -0.43
COc1ccccc1OCCCn1cc(C(=O)c2ccco2)c2ccccc21 | i | 0.2
O=c1[nH]c(=O)n(-c2cccc3ccccc23)c(O)c1C=NCc1ccc2c(c1)OCO2 | i | -0.84
CCCCCn1c(=O)c(C(=O)Nc2ccccn2)c(O)c2ccccc21 | i | -1.2

Continued:
SMILES | KCNQ2 inh | KCNQ2 inh baseline
Cc1ccc(C)c(CN2CCC(n3nnc4cc(F)ccc43)CC2)c1 | i | 0.08
O=c1[nH]c(CN2CC=C(c3ccccc3)CC2)nc2scc(-c3cccs3)c12 | i | -1.3
COc1ccc(-n2c(Cc3cccc([N+](=O)[O-])c3)nc3ccccc3c2=O)cc1 | i | -0.38
O=C(CN1CC=C(c2ccccc2)CC1)NC(=O)NC1CCCCC1 | i | -1
O=c1c2ccccc2nc(-c2ccccc2)n1-n1cccc1 | i | 0.1
COc1ccc(-n2c(O)c(C(C)=NCC3CCCO3)c(=O)[nH]c2=O)cc1 (stereo unspecified) | i | 0.56
CC(=O)c1c(O)n(C2CCCCCC2)c(=O)[nH]c1=O | i | 1.5
Nc1ccccc1C(=O)OCC(=O)c1ccc2c(c1)OCCO2 | i | -0.02
COCCNC(=O)c1c(NC(=O)c2ccco2)n(Cc2ccccc2)c2nc3ccccc3nc12 | i | -0.06
c1ccc(P(c2ccccc2)c2ccccn2)cc1 | i | 0.49
CN(C)C(=O)Oc1ccc2c(c1)O/C(=C\c1ccccc1)C2=O | i | 0.74
CCCCCCC(=O)c1c(O)n(-c2ccccc2OC)c(=O)[nH]c1=O (tested in a mixture with another compound) | i | 0.31
CC(=O)c1ccc(OC(NC(=O)Cc2ccccc2)C(Cl)(Cl)Cl)cc1 (stereo unspecified) | i | 0.43
CC1CCCCC1NC1CCN(C)CC1 (stereo unspecified) | i | -0.13
CCNC(=S)NCCC1=c2ccccc2=N/C1=C\c1c(O)n(C)c(=O)n(C)c1=O | i | -0.44
CCOC(=O)c1ccc(NC(=O)N2CC3CC(C2)c2cccc(=O)n2C3)cc1 (stereo unspecified) | i | -0.99
COCCCn1c(N)c(C(=O)NCc2ccco2)c2nc3ccccc3nc21 | i | -1.4
CCOC(=O)c1ccc(N=Cc2c(O)n(-c3ccccc3F)c(=S)[nH]c2=O)cc1 | i | 1.2
CNC(=O)O/N=C(\C)Cc1nnn(-c2cc(C)on2)n1 | i | 0.1
O=c1[nH]c(=O)n(-c2ccccc2Cl)c(O)c1C=NCCN1CCCCC1 | i | 0.33
O=[N+]([O-])c1cnc[nH]1 | i | -0.99
Cc1ccsc1C(=O)C1CCCN(Cc2cnc(N3CCCC3)s2)C1 (stereo unspecified) | i | -2.2
O=P(NCc1ccccc1)(Oc1ccccc1)Oc1ccccc1 | -6.9* | -0.78*
O=C(NCc1cccnc1)Nc1ccccc1Cl | i | 1.2
C[n+]1c(-c2ccccc2)cc(CCCCc2cc(-c3ccccc3)[n+](C)c(-c3ccccc3)c2)cc1-c1ccccc1 | i | -0.34
N#CC(C#N)=Cc1ccc(N2CCOCC2)cc1 | i | 0.36
C=CC1CN2CCC1CC2[C@@H](OC(=O)c1ccc(OC)cc1)c1ccnc2ccccc12 (stereo partly specified) | i | -0.26
CN1CC(C(=O)c2ccc(Cl)cc2)C(c2ccccc2F)C1 (stereo unspecified) | i | 1.5
CCOP(=O)(OCC)C(NC(=O)c1ccc(C)cc1)C(Cl)(Cl)Cl (stereo unspecified) | i | -1.3
CNC(=S)N1CCn2cccc2C1c1cccnc1 (stereo unspecified) | i | -1.2
CC(Cc1cccs1)NCc1ccc(Cl)cc1 (stereo unspecified) | i | 0.51
C[N+]1(C)[C@@H]2CC[C@H]1CC(OC(=O)C(CO)c1ccccc1)C2 (stereo partly specified) | i | 0.81
CC1CC(OP(O)(=S)c2ccc(N(C)C)cc2NC(=O)c2cccs2)CC(C)(C)C1 (stereo unspecified) | i | -0.86
COc1ccc(N2C(=O)/C(=C/c3cccs3)C(=O)NC2=S)cc1 | i | -0.98
N#CC(C#N)=Cc1cccnc1 | i | -0.44
CCCCCCOc1ccc(CN2CCN(CCO)CC2)cc1 | i | -0.25
c1ccc(-c2[nH]c(-c3ccccc3)[n+](CC3CO3)c2-c2ccccc2)cc1 (stereo unspecified) | i | -1
COc1ccc(C2N(c3cc(C)on3)C(=O)C3CCCN32)cc1 (stereo unspecified) | i | -1.1
CCN(CC)c1ccc(/C=C2\C(=O)NC(=O)N(Cc3ccco3)C2=O)cc1 | i | 3.6
O=C(N/N=C/c1c(O)n(-c2ccccc2)c(=O)[nH]c1=O)c1ccncc1 | i | -0.96
O=C1/C(=C\c2ccc([N+](=O)[O-])cc2)N2CCC1CC2 | i | 0.1
CC(=O)N1N=C2C3CCN(CC3)C2C1c1ccc(F)cc1 (stereo unspecified) | i | -0.52
O=C1C2C3CCC(O3)C2C(=O)N1c1cccc(F)c1 (stereo unspecified) | i | -0.31
CN(C)c1nc(OCCNC(=O)COc2ccc(Cl)cc2Cl)nc(N2CCCCC2)n1 | i | 0.34
Cc1ccc(NC(=O)c2cc(-c3ccccc3)n(CCCN3CCOCC3)c2C)cc1 | i | 0.05

An excerpt of these results, as tab-separated lines.
compound	KCNQ2 inh	KCNQ2 inh baseline
O=C1C2C3CCC(O3)C2C(=O)N1c1cccc(F)c1 (stereo unspecified)	i	-0.31
CN(C)c1nc(OCCNC(=O)COc2ccc(Cl)cc2Cl)nc(N2CCCCC2)n1	i	0.34

Entries from the list above with two or more sulfur atoms:
SMILES | KCNQ2 inh | KCNQ2 inh baseline
CN(C)CCSC1c2ccccc2CSc2ccccc21 (stereo unspecified) | i | 0.2
O=c1[nH]c(CN2CC=C(c3ccccc3)CC2)nc2scc(-c3cccs3)c12 | i | -1.3
Cc1ccsc1C(=O)C1CCCN(Cc2cnc(N3CCCC3)s2)C1 (stereo unspecified) | i | -2.2
CC1CC(OP(O)(=S)c2ccc(N(C)C)cc2NC(=O)c2cccs2)CC(C)(C)C1 (stereo unspecified) | i | -0.86
COc1ccc(N2C(=O)/C(=C/c3cccs3)C(=O)NC2=S)cc1 | i | -0.98
